Screening data: PubChem BioAssay, Emory University Molecular Libraries Screening Center
Measles inh – inhibitors of measles virus growth in infected cells; infected Vero cells, GFP fluorescence, 64 h; stronger effect = lower value; AID 745; z-score (test concentration not listed); 0.1% of 33,000 active;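 active = z-score under -3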;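 also: score is relative to mean and SD of the compound wells of a plate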
Starred values were filed as active, the others as inactive. An excerpt, so the mix of outcomes need not match the whole.

nr	Compound	Measles inh
1	Cc1ccc(OCc2nnc(NC(=O)C(c3ccccc3)c3ccccc3)s2)cc1	-2.05
2	O=C(Nc1ccc2ccccc2c1)c1scc2c1CCCC2	-0.99
3	O=C1CC(c2cccc3ccccc23)Sc2nc(C34CC5CC(CC(C5)C3)C4)nn21 (stereo unspecified)	0.27
4	CCc1nc(N2CCN(CC)CC2)c2c3c(sc2n1)CCCC3	1.09
5	Cc1ccc(N2CCN(S(=O)(=O)c3ccc(F)c(C(=O)Nc4ccc(C(C)C)cc4)c3)CC2C)cc1 (stereo unspecified)	-0.22
6	FC(F)(F)c1cc(-c2ccco2)nc(-n2nnc3ccccc32)n1	0.41
7	N#Cc1c(N2C(=O)C3ON(c4ccccc4)C(c4cccc([N+](=O)[O-])c4)C3C2=O)sc2c1CCCC2 (stereo unspecified)	-0.63
8	O=C(Nc1cc(Cl)ccc1O)c1nn2c(c1Cl)NC(c1cccs1)CC2C(F)(F)F (stereo unspecified)	-2
9	COc1ccccc1-c1cc(C(=O)Nc2sc3c(c2C#N)CCC(C(C)(C)C)C3)no1 (stereo unspecified)	0.41
10	NC(=O)C1(N2CCCCC2)CCN(CC(=O)Nc2ccc(Oc3ccccc3)cc2)CC1	-1.3
11	CCOc1ccc(C2C3=C(CCCC3=O)Nc3nc(SC)[nH]c(=O)c32)cc1 (stereo unspecified)	-0.77
12	CN(C)c1ccc(NC(=O)CN2CCN(c3ccc(Cl)cc3)CC2)cc1	1.17
13	COc1ccc(C2C(N3C(=O)c4cccc([N+](=O)[O-])c4C3=O)C(=O)N2c2ccc(C)c(C)c2)cc1OC (stereo unspecified)	1.06
14	CN1CCc2c(n(CC(O)CN3CCCC3)c3ccccc23)C1=O (stereo unspecified)	0.15
15	CCN(CC)CCNc1nc(C)nc2c1sc1nc3c(cc12)COC(C)(C)C3	0.95

6 entries drawn at random from the list so far, as already listed:
nr	Compound	Measles inh
1	Cc1ccc(OCc2nnc(NC(=O)C(c3ccccc3)c3ccccc3)s2)cc1	-2.05
3	O=C1CC(c2cccc3ccccc23)Sc2nc(C34CC5CC(CC(C5)C3)C4)nn21 (stereo unspecified)	0.27
9	COc1ccccc1-c1cc(C(=O)Nc2sc3c(c2C#N)CCC(C(C)(C)C)C3)no1 (stereo unspecified)	0.41
2	O=C(Nc1ccc2ccccc2c1)c1scc2c1CCCC2	-0.99
5	Cc1ccc(N2CCN(S(=O)(=O)c3ccc(F)c(C(=O)Nc4ccc(C(C)C)cc4)c3)CC2C)cc1 (stereo unspecified)	-0.22
10	NC(=O)C1(N2CCCCC2)CCN(CC(=O)Nc2ccc(Oc3ccccc3)cc2)CC1	-1.3

Next section:
nr	Compound	Measles inh
16	CCOc1ccccc1C(=O)Nc1c2c(nn1-c1ccc(F)cc1)CS(=O)(=O)C2	0.5
17	O=C1CC(c2ccc3c(c2)OCO3)CC2=C1C(c1ccc(C(F)(F)F)cc1)Nc1ccccc1N2 (stereo unspecified)	-0.38
18	O=C(NCC1CCCO1)C1CCCN(S(=O)(=O)c2cccc3nsnc23)C1 (stereo unspecified)	0.79
19	Cc1cc(C)c(C#N)c(Nc2cccc(C(F)(F)F)c2)n1	1.26
20	COc1cc2[nH]c(=O)n(CCC(=O)NCc3ccc(C)o3)c(=O)c2cc1OC	-0.84
21	Cc1ccnc(NC(=O)Cn2ccc([N+](=O)[O-])n2)c1	1.19
22	O=C(CSc1nc2ccc(N3CCCCC3)cc2c(=O)n1Cc1ccccc1)NCc1ccccc1	-0.51
23	Cc1ccccc1NC(=O)C(c1ccccc1)N1CCOCC1 (stereo unspecified)	1.99
24	CCN1CCN(C(=O)c2cn(CC)c3ccc(S(=O)(=O)N4CCCCC4)cc3c2=O)CC1	0.19
25	O=C(COc1ccccc1)N1N=C(C2CCCCC2)CC1(O)C(F)(F)F (stereo unspecified)	0.7
26	COc1cc2c(cc1OC)C(C(=O)Nc1ccc(C(C)C)cc1)C(c1cccs1)N(C)C2=O (stereo unspecified)	-0.5
27	COc1ccc([N+](=O)[O-])cc1NC(=O)c1cccc(F)c1	-5.24*
28	COc1ccc(C2C(C(=O)OC3CCCC3)=C(C)NC3=C2C(=O)CCC3)c(OC)c1OC (stereo unspecified)	-0.75
29	O=C(Cn1cnc([N+](=O)[O-])n1)Nc1cccc(Cl)c1	-0.13
30	CCOCCOC(=O)C1=C(C)NC2=C(C(=O)CC(c3ccc(OC)cc3)C2)C1c1cccc(F)c1 (stereo unspecified)	0.67

Later entries:
nr	Compound	Measles inh
31	COc1ccc(C2Nc3ccccc3NC3=C2C(=O)CC(C)(C)C3)cc1Cn1cc([N+](=O)[O-])cn1 (stereo unspecified)	-0.28
32	CC1(C)CC(=O)C2=C(C1)N=C1c3ccccc3C(=O)C1C2c1ccc(F)cc1 (stereo unspecified)	-1.06
33	N=c1c2c3c(sc2nc2n1CCCCC2)CCCCC3	2.68
34	Cc1ccc(CN2C(=O)C3C(C(=O)Nc4cccc(Cl)c4)C4C=CC3(O4)C2C(=O)NC2CCCC(C)C2C)cc1 (stereo unspecified)	-0.64
35	COc1ccc(-c2nnc(NC(=O)c3ccc(S(=O)(=O)N(C)C)cc3)o2)c(OC)c1	1.3
36	CCCCc1c(O)nc(SCC(=O)N2CCCCCC2)[nH]c1=O	0.82
37	CC(Cc1ccccc1)NC(=O)C1CCCNC1=O (stereo unspecified)	-0.63
38	Cc1cc(S(=O)(=O)N2CCN(S(=O)(=O)c3ccc(Cl)c(C)c3)C(C)C2)ccc1Cl (stereo unspecified)	0.41
39	O=[N+]([O-])c1cc(C2Nc3cccc4cccc(c34)N2)ccc1Cl	0.46
40	O=C(Nc1ncc(S(=O)(=O)c2ccc([N+](=O)[O-])cc2)s1)c1ccco1	0.92
41	Cc1ccc(Nc2nc(-c3ccc(O)c(O)c3)cs2)nc1	-0.77
42	Cc1ccc2nc(-c3cc(N)cc(N)c3)oc2c1	-0.5
43	CN1CCN(c2ccc(N3C(=O)CCCC3=O)cc2[N+](=O)[O-])CC1	1.72
44	Cc1ccc2nc(NC(=O)C3CCN(S(=O)(=O)c4ccc(Br)s4)CC3)sc2c1	-1.02
45	O=C(Nc1ccc2nn(-c3cccc(Cl)c3)nc2c1)c1cccc2ccccc12	0.64

Later entries:
nr	Compound	Measles inh
46	FC(F)(F)c1cc(-c2cccs2)nc(NC2CCCC2)n1	-0.78
47	CC(C)Sc1oc(-c2ccc(F)cc2)nc1S(=O)(=O)c1ccc(Cl)cc1	-1.46
48	CCC(=O)N1CCc2cc(S(=O)(=O)Nc3c(C)cc(C)cc3C)ccc21	-0.24
49	Cc1cc(NC(=O)CSc2nccn2-c2ccccc2)no1	0.5
50	CCOC(=O)c1sc(N)nc1C	1.11
51	O=C(Nc1ccc2snnc2c1)N1CCOCC1	-0.42
52	COc1ccc(Nc2nc(-c3sc(C)nc3C)cs2)cc1	-0.86
53	O=C(c1ccc(S(=O)(=O)N2CCOCC2)cc1)N1CCN(CCN2C(=O)c3cccc4cccc(c34)C2=O)CC1	0.05
54	CCSc1nnc2c(n1)OC(c1ccc(OC(C)=O)c(OC)c1)N(C(C)=O)c1ccccc1-2 (stereo unspecified)	-0.36
55	O=C(C1CCC(Cn2c(=S)[nH]c3ccccc3c2=O)CC1)N1CCOCC1 (stereo unspecified)	0.1
56	CCOc1ccccc1NC(=O)COc1ccc(C(C)(C)C)cc1	-0.23
57	CCCCc1cc(=O)oc2c(C)c3oc4c(c3cc12)CCCC4	-0.23
58	CCOc1ccccc1NC(=O)CCN1CCN(c2ccc(F)cc2)CC1	-0.01
59	O=[N+]([O-])c1c(Nc2ccccc2I)ccc2nonc12	-0.76
60	COc1ccc(OC)c(CN2CCC(N3CCN(CCO)CC3)CC2)c1	-1.05

(next part)
nr	Compound	Measles inh
61	COc1ccccc1-c1cc(C(=O)N2CCN(c3ccc(F)cc3)CC2)no1	-0.15
62	CCOC(=O)c1ccc(Nc2nc(-c3cc4ccccc4oc3=O)cs2)cc1	0.12
63	O=C(Nc1nc(-c2ccc([N+](=O)[O-])cc2)cs1)c1cccnc1	-1.33
64	COc1ccc(S(=O)(=O)CCC(=O)NC2CCCCCC2)cc1	-0.71
65	CCCC12CN3CC(CCC)(CN(C1)C3c1ccc([N+](=O)[O-])cc1)C2=O (stereo unspecified)	0.27
66	CC1=CCC(C(=O)O)(C(=O)n2nc(C)cc2C)C(c2ccc(F)cc2)C1 (stereo unspecified)	0.07
67	COc1ccc(N2CCN(C(=O)Nc3ccc(Cl)cc3)CC2)cc1	-1.2
68	COc1ccc(OC)c(Nc2nc(-c3cc4cc(Cl)ccc4oc3=O)cs2)c1	0.01
69	O=C(Nc1ccc(Br)cc1)c1ccc(F)c(S(=O)(=O)N2CCc3ccccc32)c1	-0.49
70	O=C(NC1CC1)c1ccc2c(c1)N(Cc1ccc(Cl)cc1)C(=O)CS2	-0.15
71	CC(=O)Oc1ccc(C2C(C(=O)OCCOc3ccccc3)=C(C)NC3=C2C(=O)CCC3)cc1 (stereo unspecified)	-0.92
72	Cc1ccc(-n2nc3ccc(NC(=O)c4ccc(Cl)c([N+](=O)[O-])c4)cc3n2)cc1Cl	-1.27
73	Cc1cc(C)cc(NC(=O)c2c(C)nc3ccccn23)c1	-0.39
74	O=C(CSc1nc2c(c(=O)n1-c1ccc([N+](=O)[O-])cc1)SCC2)Nc1ccc2c(c1)OCCO2	-0.59
75	CCN(C(=O)c1cc(C(=O)N(CC)c2ccccc2)cc([N+](=O)[O-])c1)c1ccccc1	-1.33

(next part)
nr	Compound	Measles inh
76	Cc1ccc(N2C(=O)CC(c3ccccc3)C3=C2CC(C)(C)CC3=O)cc1 (stereo unspecified)	0.65
77	CCOC(=O)C1=NNC2C(=O)N(c3ccccc3Cl)C(=O)C12 (stereo unspecified)	-0.87
78	Cc1c(Cl)cccc1NC(=O)c1cc2c(=O)oc3ccccc3c2s1	0.45
79	Nc1nc(CSc2ncn[nH]2)cs1	-0.25
80	Cc1ccc(N2C(=O)C(N3C(=O)c4cccc([N+](=O)[O-])c4C3=O)C2c2ccc(F)cc2)cc1F (stereo unspecified)	-0.22
81	CC(C)(C)c1ccc(C(=O)Nc2c3c(nn2-c2ccc(F)cc2)CS(=O)(=O)C3)cc1	-0.84
82	COC(=O)c1c(N)sc2c1CCc1ccccc1-2	-0.29
83	Cc1nc(SCC(=O)Nc2ccc(Br)cc2)[nH]c(=O)c1Cc1ccccc1	-0.05
84	CCc1cc2c(=O)c(-c3ccc(OC(C)C)cc3)coc2cc1OC(C)=O	0.92
85	COc1ccc(CN2COc3cc4c(cc3C2)OCO4)cc1	-0.62
86	CCOC(=O)c1ccccc1NS(C)(=O)=O	0.85
87	CCc1ccccc1NC(=O)CN1C(=O)c2ccccc2Sc2ccc(C(=O)N3CCCC3)cc21	0.2
88	c1ccc(C(Cc2nc(-c3cccnc3)no2)c2ccccc2)cc1	-0.51
89	Cc1ccc(Cl)cc1N1C(=O)CN(Cc2cccs2)C1=S	7.3
90	Cc1ccc(C(=O)NCc2ccco2)cc1	1.58

Some of the entries so far, with the structure last.
| nr | Measles inh | smiles |
| --- | --- | --- |
| 89 | 7.3 | Cc1ccc(Cl)cc1N1C(=O)CN(Cc2cccs2)C1=S |
| 82 | -0.29 | COC(=O)c1c(N)sc2c1CCc1ccccc1-2 |

Further records:
nr	Compound	Measles inh
91	CCN1CNC(=S)N(c2cccc(OC)c2)C1	0.4
92	O=C(Nc1ccc(N2CCOCC2)cc1)c1cc([N+](=O)[O-])ccc1Br	-0.5
93	O=C(O)c1cc(S(=O)(=O)NCc2ccco2)ccc1Cl	0.78
94	O=C(C1CCN(S(=O)(=O)c2cccnc2)CC1)N1CCN(c2ccccc2Cl)CC1	-0.98
95	O=c1c2cc(N3CCCCC3)ccc2nc(SCc2cc(=O)n3cc(Br)ccc3n2)n1Cc1ccccc1	-0.52
96	CCOc1ccc(NC2=CC(=NS(=O)(=O)c3cc(C)ccc3C)c3ccccc3C2=O)cc1	2.53
97	COc1ccc(CCNC(=O)C2CCN(C(=O)c3ccccc3C)CC2)cc1	0.88
98	Cc1ccc(N2C(=O)CSC2c2ccc(Br)cc2)cc1Cl (stereo unspecified)	-0.88
99	COC(=O)c1ccccc1NS(=O)(=O)c1cc(OC)ccc1OC	-0.35
100	Cc1[nH]c2ccccc2c1SCCNC(=O)c1ccc2ccccc2c1	0.36
101	CC(C)OCCCNS(=O)(=O)c1ccc2c(c1)CCN2C(=O)C1CC1	1.04
102	CCCCCCCOC(=O)c1[nH]c2c(c1C)C(=O)CC(c1cccs1)C2 (stereo unspecified)	-0.31
103	Cc1cccc(N2CN(Cc3ccccc3)CNC2=S)c1C	0.23
104	COC(=O)c1ccc(Nc2cc(N3CCCC3)c3noc4c3c2C(=O)c2ccccc2-4)cc1	-0.07
105	COc1ccc(N2C(=O)C3CC=CCC3C2=O)cc1Cl (stereo unspecified)	-0.59

The listing continues.
nr	Compound	Measles inh
106	c1ccc(OCc2nc(-c3ccccn3)no2)cc1	0.74
107	COC(=O)c1cc(-c2ccc([N+](=O)[O-])cc2)nc2ccccc12	-0.33
108	CC1CC(C)(C)NC(=S)N1CC(=O)N1CCN(Cc2ccc3c(c2)OCO3)CC1 (stereo unspecified)	1.41
109	CCOc1ccc(CNC(=O)c2cn(C)c(=O)c3c2c2ccccc2n3C)cc1	1.38
110	CC=CCn1c(SCC=C(C)Cl)nc2c1c(=O)[nH]c(=O)n2C	-0.47
111	CCOC(=O)c1cc(-c2ccc(OC)c(OC)c2)no1	0.13
112	CCCC(=O)Nc1cc(C(=O)O)ccc1Sc1ccccc1	-0.03
113	CC(=O)Nc1cccc(NC(=O)c2sc3nc(-c4ccccc4)cn3c2C)c1	-0.2
114	Cc1cccc(N2CCN(C(=O)CCC3=NS(=O)(=O)c4ccccc4N3)CC2)c1C	-0.29
115	Cc1ccc(S(=O)(=O)N=C(CSC(N)=O)Nc2ccccc2C)cc1	0.11
116	CCCCC(=O)Oc1c(Sc2ccccc2[N+](=O)[O-])c(C)nn1-c1ccccc1	-0.78
117	O=C(Nc1nccs1)C1CCCN(S(=O)(=O)c2cccc3nsnc23)C1 (stereo unspecified)	-0.3
118	Cc1cccc(NC(=O)CSc2nc3c(cnn3-c3ccc(Cl)cc3)c(=O)[nH]2)c1C	-0.1
119	Cc1nc(O)c(C(c2ccccc2F)C(C#N)C#N)[nH]1 (stereo unspecified)	-0.71

Shown as a hit in Measles inh, of those listed so far:
nr	Compound	Measles inh
27	COc1ccc([N+](=O)[O-])cc1NC(=O)c1cccc(F)c1	-5.24*
